Screens: PubChem BioAssay, Broad Institute
Ran_importin – inhibitors of Ran–importin-beta complex formation, primary screen, biochemical, CFP-Ran/YFP-importin-beta FRET, RCC1, cell-free (AID 434961). Regulator of chromosome condensation (Homo sapiens) + GTP-binding nuclear protein Ran …. CFP-Ran/YFP-importin-beta FRET, cell-free; active compounds read high. inhibition, %. 7,700 tested, 0.2% active;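 active = more than half of the replicate wells above 15% inhibition; inconclusive = exactly half above it; inactive = fewer than half above it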;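 also: 0% = DMSO wells and 100% inhibition = RanGDP control wells on each plate; stock of unstated strength diluted about 400-fold; mean of two wells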
Active calls of the source: *; ? = inconclusive. Some of the compounds tested, so the mix of outcomes need not match the whole.

SMILES Ran_importin
C[C@H](CO)N1C[C@H](C)[C@@H](CN(C)C(=O)Nc2ccc3c(c2)OCO3)Oc2ccc(NS(=O)(=O)c3cccs3)cc2C1=O 4.1
Cc1noc(C)c1NC(=O)N(C)C[C@H]1Oc2c(NC(=O)c3ccc(-c4nccs4)cc3)cccc2C(=O)N([C@H](C)CO)C[C@H]1C -1.4
C[C@@H]1CN([C@H](C)CO)C(=O)c2cc(N(C)C)ccc2O[C@@H](C)CCCCO[C@@H]1CN(C)C -0.8
C[C@@H]1CN([C@@H](C)CO)C(=O)CCCn2cc(nn2)CO[C@@H]1CN(C)C(=O)Nc1ccccc1F 0.1
Cc1noc(C)c1NC(=O)Nc1cccc2c1O[C@H](CN(C)Cc1ccc3c(c1)OCO3)[C@@H](C)CN([C@H](C)CO)C2=O 4.7
Cc1noc(C)c1NC(=O)Nc1ccc2c(c1)C(=O)N([C@@H](C)CO)C[C@H](C)[C@H](CN(C)S(=O)(=O)c1cn(C)cn1)OCCCC[C@@H](C)O2 2.6
Cc1noc(C)c1NC(=O)Nc1cccc2c1O[C@H](CN(C)CC1CC1)[C@H](C)CN([C@@H](C)CO)C2=O -0.9
Cc1noc(C)c1NC(=O)Nc1ccc2c(c1)C(=O)N([C@H](C)CO)C[C@H](C)[C@@H](CN(C)C(=O)C1CCCCC1)OCCCC[C@H](C)O2 -2.2
Cc1noc(C)c1NC(=O)N(C)C[C@@H]1Oc2ncc(Br)cc2C(=O)N([C@H](C)CO)C[C@@H]1C -3.6
CNC[C@H]1OCCCC[C@@H](C)Oc2ccc(NC(=O)NC(C)C)cc2C(=O)N([C@H](C)CO)C[C@H]1C -5.5
C[C@H]1CN([C@@H](C)CO)C(=O)c2cc(NC(=O)Nc3ccc(F)cc3)ccc2O[C@@H]1CN(C)Cc1ccncc1 0.0
C[C@H]1CN([C@@H](C)CO)C(=O)c2cccc(NC(=O)Nc3ccc(F)cc3)c2O[C@H]1CN(C)Cc1ccc(C(=O)O)cc1 -1.9
C[C@H]1CCCCO[C@@H](CN(C)C(=O)Nc2ccc3c(c2)OCO3)[C@@H](C)CN([C@@H](C)CO)C(=O)c2cc(NS(C)(=O)=O)ccc2O1 -4.8
C[C@@H]1CN([C@@H](C)CO)C(=O)c2cc(NC(=O)Nc3ccc(F)cc3)ccc2O[C@@H]1CN(C)S(=O)(=O)c1cccs1 3.5
CC(C)NC(=O)N(C)C[C@@H]1OCCCC[C@H](C)Oc2ccc(NC(=O)Cc3ccccc3)cc2C(=O)N([C@H](C)CO)C[C@@H]1C 1.0
COC(=O)N(C)C[C@@H]1OCc2cnnn2CCCC(=O)N([C@@H](C)CO)C[C@@H]1C -0.4
C[C@H]1CN([C@@H](C)CO)C(=O)c2cc(NC(=O)NC3CCCCC3)ccc2O[C@@H]1CN(C)C(=O)Nc1ccc2c(c1)OCO2 ?
C[C@@H]1CN([C@H](C)CO)C(=O)c2cccc(NC(=O)c3ccc(-c4nccs4)cc3)c2O[C@H]1CN(C)S(=O)(=O)c1cccs1 -5.3
COc1ccc(S(=O)(=O)N(C)C[C@@H]2Oc3c(NS(C)(=O)=O)cccc3C(=O)N([C@@H](C)CO)C[C@@H]2C)cc1 -2.1
C[C@@H]1CN([C@H](C)CO)C(=O)Cc2cc(NC(=O)NC3CCCCC3)ccc2O[C@@H]1CN(C)S(=O)(=O)c1cccs1 ?
C[C@@H]1CCCCO[C@H](CN(C)C)[C@@H](C)CN([C@H](C)CO)C(=O)c2cc(NC(=O)Cc3ccccc3)ccc2O1 -1.1
Cc1noc(C)c1NC(=O)Nc1ccc2c(c1)C(=O)N([C@@H](C)CO)C[C@H](C)[C@@H](CN(C)C)O2 -0.5
C[C@@H]1CN([C@H](C)CO)C(=O)CCCn2cc(nn2)CO[C@H]1CN(C)C(=O)Nc1ccccc1F -2.6
C[C@H](CO)N1C[C@H](C)[C@@H](CN(C)C(=O)NC2CCCCC2)Oc2c(NC(=O)c3ccncc3)cccc2C1=O 1.0
CC(C)NC(=O)N(C)C[C@@H]1OCCCC[C@H](C)Oc2ccc(NS(=O)(=O)c3ccccc3)cc2C(=O)N([C@@H](C)CO)C[C@@H]1C 4.7
COc1ccc(S(=O)(=O)N(C)C[C@@H]2Oc3ccc(NS(=O)(=O)c4cn(C)cn4)cc3C(=O)N([C@@H](C)CO)C[C@H]2C)cc1 -0.8
C[C@@H]1CN([C@H](C)CO)C(=O)c2cccc(NS(=O)(=O)c3ccccc3)c2O[C@@H]1CN(C)C(=O)Nc1ccc2c(c1)OCO2 7.8
Cc1noc(C)c1NC(=O)N(C)C[C@H]1Oc2ccc(NC(=O)Cc3cn(C)c4ccccc34)cc2CC(=O)N([C@H](C)CO)C[C@H]1C -2.6
CC(C)NC(=O)N(C)C[C@H]1OCCCC[C@@H](C)Oc2ccc(NC(=O)CCC(F)(F)F)cc2C(=O)N([C@H](C)CO)C[C@@H]1C 4.6
COc1ccc(S(=O)(=O)N(C)C[C@@H]2Oc3ccc(NC(=O)Cc4cn(C)c5ccccc45)cc3CC(=O)N([C@H](C)CO)C[C@@H]2C)cc1 ?
C[C@H](CO)N1C[C@H](C)[C@@H](CN(C)S(=O)(=O)c2cccs2)Oc2ccc(NS(C)(=O)=O)cc2C1=O -0.1
C[C@@H]1CN([C@H](C)CO)C(=O)c2cccc(NC(=O)c3ccncc3)c2O[C@@H]1CN(C)Cc1ccc(Oc2ccccc2)cc1 0.5
CNC[C@@H]1Oc2ccc(N(C)C)cc2CC(=O)N([C@@H](C)CO)C[C@H]1C -2.6
C[C@@H]1CN([C@H](C)CO)C(=O)CCCn2nncc2CO[C@@H]1CN(C)C 1.8
C[C@@H]1CCCCO[C@@H](CN(C)C(=O)CCC(F)(F)F)[C@@H](C)CN([C@H](C)CO)C(=O)c2cc(NS(=O)(=O)c3ccccc3)ccc2O1 -0.8
COc1ccc(CN(C)C[C@H]2Oc3ccc(NS(=O)(=O)c4ccc(OC)cc4)cc3CC(=O)N([C@@H](C)CO)C[C@H]2C)cc1 0.4
COc1ccc(S(=O)(=O)N(C)C[C@H]2Oc3ccc(NS(=O)(=O)c4cccs4)cc3C(=O)N([C@H](C)CO)C[C@@H]2C)cc1 0.8
C[C@H](CO)N1C[C@H](C)[C@H](CN(C)C(=O)Nc2ccc(-c3cccs3)cc2)OCc2cn(nn2)CCCC1=O 1.5
COc1ccccc1CN(C)C[C@@H]1OCc2cnnn2CCCC(=O)N([C@@H](C)CO)C[C@H]1C -5.3
C[C@H]1CN([C@@H](C)CO)C(=O)c2cccc(N(C)C)c2O[C@@H]1CN(C)Cc1ccc(C(F)(F)F)cc1 -1.4
C[C@@H]1CN([C@H](C)CO)C(=O)Cc2cc(NS(C)(=O)=O)ccc2O[C@@H]1CN(C)Cc1ccc(-c2ccccc2)cc1 -1.1
Cc1noc(C)c1S(=O)(=O)Nc1ccc2c(c1)C(=O)N([C@@H](C)CO)C[C@H](C)[C@@H](CN(C)C)O2 -0.9
C[C@H](CO)N1C[C@H](C)[C@@H](CN(C)C(=O)CCCN(C)C)OCCCC[C@H](C)Oc2ccc(NS(=O)(=O)c3ccccc3)cc2C1=O 2.5
C[C@H]1CN([C@@H](C)CO)C(=O)c2cc(NC(=O)Nc3cccc4ccccc34)ccc2O[C@@H]1CN(C)C(=O)NC1CCCCC1 -4.7
COc1ccc(NC(=O)Nc2ccc3c(c2)CC(=O)N([C@@H](C)CO)C[C@H](C)[C@H](CN(C)C)O3)cc1 ?
C[C@H](CO)N1C[C@H](C)[C@H](CN(C)C(=O)Nc2ccc(F)cc2)Oc2ccc(NC(=O)NC3CCCCC3)cc2C1=O 2.4
C[C@@H]1CN([C@@H](C)CO)C(=O)Cc2cc(NC(=O)Cc3cn(C)c4ccccc34)ccc2O[C@@H]1CN(C)C(=O)Nc1ccccc1 3.8
C[C@@H]1CCCCO[C@@H](CN(C)Cc2ccccc2)[C@H](C)CN([C@@H](C)CO)C(=O)c2cc(NS(=O)(=O)c3ccccc3)ccc2O1 1.9
C[C@H]1CN([C@@H](C)CO)C(=O)Cc2cc(NC(=O)C3CC3)ccc2O[C@H]1CN(C)S(=O)(=O)c1cn(C)cn1 -3.4
C[C@@H]1CN([C@H](C)CO)C(=O)c2cccc(N(C)C)c2O[C@@H]1CN(C)C(=O)NC1CCCCC1 -2.7
C[C@@H]1CCCCO[C@H](CN(C)C(=O)CCC(F)(F)F)[C@H](C)CN([C@@H](C)CO)C(=O)c2cc(N(C)C)ccc2O1 -1.1
C[C@H](CO)N1C[C@H](C)[C@H](CN(C)S(=O)(=O)c2cccs2)Oc2ncc(C#Cc3ccc(C(F)(F)F)cc3)cc2C1=O 3.6
CNC[C@@H]1Oc2ccc(N(C)C)cc2CC(=O)N([C@H](C)CO)C[C@H]1C 0.7
C[C@H](CO)N1C[C@H](C)[C@@H](CN(C)C(=O)Nc2ccccc2)Oc2c(NC(=O)c3ccncc3)cccc2C1=O -1.1
C[C@@H]1CCCCO[C@H](CN(C)Cc2ccncc2)[C@@H](C)CN([C@H](C)CO)C(=O)c2cc(NC(=O)c3ccncc3)ccc2O1 ?
C[C@@H]1CN([C@H](C)CO)C(=O)c2cc(NC(=O)CCC(F)(F)F)ccc2O[C@@H]1CN(C)C 1.0
C[C@H]1CN([C@@H](C)CO)C(=O)Cc2cc(N(C)C)ccc2O[C@@H]1CN(C)C(=O)Nc1cccc2ccccc12 -0.1
C[C@@H]1CCCCO[C@H](CN(C)C(=O)CCCN(C)C)[C@@H](C)CN([C@H](C)CO)C(=O)c2cc(NS(=O)(=O)c3ccccc3)ccc2O1 -6.5
CC(C)NC(=O)Nc1ccc2c(c1)C(=O)N([C@H](C)CO)C[C@H](C)[C@@H](CN(C)C(=O)Nc1ccccc1)OCCCC[C@H](C)O2 -1.7
C[C@@H]1CN([C@H](C)CO)C(=O)c2cc(NC(=O)Nc3ccc4c(c3)OCO4)ccc2O[C@H]1CN(C)Cc1ccncc1 2.4
Continuation:
SMILES Ran_importin
CNC[C@@H]1Oc2c(N)cccc2C(=O)N([C@H](C)CO)C[C@H]1C ?
C[C@@H]1CN([C@@H](C)CO)C(=O)c2cc(NC(=O)c3ccccc3)ccc2O[C@@H](C)CCCCO[C@@H]1CN(C)C -2.5
CC(C)NC(=O)Nc1cccc2c1O[C@@H](CN(C)CC1CC1)[C@H](C)CN([C@@H](C)CO)C2=O -2.6
C[C@@H]1CN([C@H](C)CO)C(=O)CCCn2cc(nn2)CO[C@@H]1CN(C)S(=O)(=O)c1ccc(-n2cccn2)cc1 2.2
CNC[C@H]1OCCCC[C@H](C)Oc2ccc(NC(=O)NC(C)C)cc2C(=O)N([C@H](C)CO)C[C@@H]1C -5.0
C[C@H](CO)N1C[C@H](C)[C@H](CN(C)Cc2ccncc2)Oc2ccc(NC(=O)Nc3ccc(F)cc3)cc2CC1=O -1.7
C[C@@H]1CN([C@@H](C)CO)C(=O)c2cc(NC(=O)CCCN(C)C)ccc2O[C@H]1CN(C)C 1.5
C[C@H](CO)N1C[C@H](C)[C@H](CN(C)Cc2ccncc2)Oc2ncccc2C1=O -0.2
Cc1noc(C)c1NC(=O)N(C)C[C@H]1OCCCC[C@@H](C)Oc2ccc(NS(=O)(=O)c3cccs3)cc2C(=O)N([C@H](C)CO)C[C@@H]1C 1.2
C[C@H](CO)N1C[C@H](C)[C@H](CN(C)C(=O)c2ccncc2)OCCCC[C@H](C)Oc2ccc(NC(=O)CCC(F)(F)F)cc2C1=O -4.3
C[C@@H]1CCCCO[C@H](CN(C)C(=O)c2ccccc2)[C@@H](C)CN([C@H](C)CO)C(=O)c2cc(NS(=O)(=O)c3cn(C)cn3)ccc2O1 -2.9
COc1ccc(CN(C)C[C@H]2Oc3c(NC(=O)Nc4c(C)noc4C)cccc3C(=O)N([C@H](C)CO)C[C@@H]2C)cc1 0.7

3 entries from above, sorted by molecular weight, falling.
SMILES Ran_importin
C[C@@H]1CN([C@H](C)CO)C(=O)CCCn2cc(nn2)CO[C@@H]1CN(C)S(=O)(=O)c1ccc(-n2cccn2)cc1 2.2
CNC[C@H]1OCCCC[C@H](C)Oc2ccc(NC(=O)NC(C)C)cc2C(=O)N([C@H](C)CO)C[C@@H]1C -5.0
CC(C)NC(=O)Nc1cccc2c1O[C@@H](CN(C)CC1CC1)[C@H](C)CN([C@@H](C)CO)C2=O -2.6

Next section
SMILES Ran_importin
C[C@@H]1CN([C@@H](C)CO)C(=O)c2cc(NC(=O)Cc3ccccc3)ccc2O[C@@H](C)CCCCO[C@H]1CN(C)C -10.0
C[C@@H]1CCCCO[C@H](CN(C)Cc2ccccc2)[C@H](C)CN([C@H](C)CO)C(=O)c2cc(NS(=O)(=O)c3cccs3)ccc2O1 1.2
C[C@@H]1CCCCO[C@H](CN(C)C)[C@@H](C)CN([C@@H](C)CO)C(=O)c2cc(NC(=O)C3CCCCC3)ccc2O1 -0.6
C[C@H](CO)N1C[C@H](C)[C@H](CN(C)Cc2ccc(Cl)c(Cl)c2)Oc2ccc(NC(=O)Cn3cnnn3)cc2C1=O 1.0

Among those listed so far, these contain a CF3 group:
SMILES Ran_importin
CC(C)NC(=O)N(C)C[C@H]1OCCCC[C@@H](C)Oc2ccc(NC(=O)CCC(F)(F)F)cc2C(=O)N([C@H](C)CO)C[C@@H]1C 4.6
C[C@@H]1CCCCO[C@@H](CN(C)C(=O)CCC(F)(F)F)[C@@H](C)CN([C@H](C)CO)C(=O)c2cc(NS(=O)(=O)c3ccccc3)ccc2O1 -0.8
C[C@H]1CN([C@@H](C)CO)C(=O)c2cccc(N(C)C)c2O[C@@H]1CN(C)Cc1ccc(C(F)(F)F)cc1 -1.4
C[C@@H]1CCCCO[C@H](CN(C)C(=O)CCC(F)(F)F)[C@H](C)CN([C@@H](C)CO)C(=O)c2cc(N(C)C)ccc2O1 -1.1
C[C@H](CO)N1C[C@H](C)[C@H](CN(C)S(=O)(=O)c2cccs2)Oc2ncc(C#Cc3ccc(C(F)(F)F)cc3)cc2C1=O 3.6
C[C@@H]1CN([C@H](C)CO)C(=O)c2cc(NC(=O)CCC(F)(F)F)ccc2O[C@@H]1CN(C)C 1.0
C[C@H](CO)N1C[C@H](C)[C@H](CN(C)C(=O)c2ccncc2)OCCCC[C@H](C)Oc2ccc(NC(=O)CCC(F)(F)F)cc2C1=O -4.3
